# TRPV1 potentiator: enhances activation of the human vanilloid receptor TRPV1; TRPV1-expressing cells, Fluo-8 calcium influx, capsaicin EC20 potentiation; host cell line not named in the record; control for the full effect not named in the record; Q8NER1; AID 540277; potentiation, % at 8.33 µM; 320,000 tested, 0.02% active; active means potentiation above 80%; inconclusive means 30% to 80%; inactive means below 30%; note: 0% is about no effect
#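 TRPV1-expressing cells were cultured overnight at 35.5C and loaded with Fluo-8 calcium dye for 40 to 90 min at room temperature. After a 10 s baseline, compound was added and calcium influx was read kinetically for 3 min (ex 480/em 520 nm).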
# CtBP-E1A inh: inhibitors of CtBP/E1A interaction; AlphaScreen GST-E1A/His-CtBP binding, 1536-well; stronger effect = lower value; control for the full effect not named in the record; activity change, % (test concentration not listed); 340,000 tested, 0.49% active; AID 651724; in the data active means activity change below about -65%; inconclusive means about -30% to -65%; inactive means above about -30%; note: % is set by controls: 0 for no effect and ±100 for the full control effect; compound concentration not given in the record
#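 GST-E1A and His-tagged CtBP (125 nM each as 5X stock) were preincubated with pin-transferred compound for 2 h at 37 °C in the dark, then glutathione donor and nickel acceptor beads were added for 1 h before AlphaScreen reading.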
# TRPML1 ag: agonists of human TRPML1 channel | Q9GZU1 | TRPML1-expressing cells, Ca2+ dye fluorescence, FDSS; host cell line not named in the record; reference of the full effect not given here | activation, % (test concentration not listed) | 410,000 tested, 0.12% active | AID 624414; in the data active = activation above about 50%; inconclusive = about 30% to 50%; inactive = below about 30%; note: 0% is about no effect; the text of the record puts the active cut at 80%
# Target sequence (Q9GZU1 whole entry, looked up): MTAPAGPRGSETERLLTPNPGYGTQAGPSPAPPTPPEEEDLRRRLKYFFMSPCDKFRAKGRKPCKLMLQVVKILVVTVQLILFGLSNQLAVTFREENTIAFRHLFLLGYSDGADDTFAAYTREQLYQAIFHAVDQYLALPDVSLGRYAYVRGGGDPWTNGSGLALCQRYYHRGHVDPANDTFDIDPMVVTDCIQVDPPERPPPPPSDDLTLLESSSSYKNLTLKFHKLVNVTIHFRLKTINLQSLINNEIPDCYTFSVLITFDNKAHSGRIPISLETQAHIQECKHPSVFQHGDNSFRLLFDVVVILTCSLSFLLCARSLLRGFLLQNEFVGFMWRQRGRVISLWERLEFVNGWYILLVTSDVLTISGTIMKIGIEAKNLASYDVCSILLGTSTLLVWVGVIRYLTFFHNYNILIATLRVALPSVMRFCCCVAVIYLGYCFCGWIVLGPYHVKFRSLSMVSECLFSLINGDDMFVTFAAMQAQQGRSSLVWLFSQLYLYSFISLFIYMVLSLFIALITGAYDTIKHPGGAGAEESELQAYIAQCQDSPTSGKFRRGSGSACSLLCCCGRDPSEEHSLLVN
#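 In this qHTS format, compounds were pin-transferred onto Ca8-dye-loaded TRPML1-DL cells induced with Tet overnight, and intracellular Ca2+ fluorescence was recorded kinetically for 110 s after a 10 s baseline. A subsequent 4uM final 54-4 (EC80) addition followed by a second 110 s read served as the antagonist phase.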
# D2 PAM: human D2 receptor positive allosteric modulation | P14416 | DiscoveRx D2 beta-arrestin cells, luminescence, 90 min; 100% = 57 uM dopamine signal | potentiation, % (concentration not given with the values) | 360,000 tested, 0.23% active | AID 624464; active = potentiation of 50% or more; inconclusive = 30% to 50%; inactive = 30% or less;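 note: compound concentration not given in the record; tested on top of an EC20 dose of dopamine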
# Target sequence (P14416 whole entry, looked up): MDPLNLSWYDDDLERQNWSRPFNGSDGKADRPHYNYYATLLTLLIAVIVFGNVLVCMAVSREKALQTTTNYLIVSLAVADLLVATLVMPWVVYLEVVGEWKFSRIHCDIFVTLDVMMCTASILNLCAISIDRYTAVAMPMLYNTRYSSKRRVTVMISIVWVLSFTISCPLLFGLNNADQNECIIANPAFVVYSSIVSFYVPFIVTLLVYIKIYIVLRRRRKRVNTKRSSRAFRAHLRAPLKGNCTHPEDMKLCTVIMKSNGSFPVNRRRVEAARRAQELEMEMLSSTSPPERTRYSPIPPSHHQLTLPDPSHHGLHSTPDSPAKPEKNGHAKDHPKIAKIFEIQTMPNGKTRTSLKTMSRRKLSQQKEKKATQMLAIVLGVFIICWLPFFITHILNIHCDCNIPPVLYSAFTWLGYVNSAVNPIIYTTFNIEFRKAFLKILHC
#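 PathHunter D2 cells, attached overnight at 37 deg C, received compound in DMSO plus dopamine at EC20 (50 nM final) for 90 min at 37 deg C. Beta-arrestin recruitment was read as luminescence after 1 h with detection reagent at ambient temperature.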
# Six1-Eya2 blk: inhibitors of human Six1/Eya2 interaction; Q15475+O00167; AlphaScreen GST-Six1/His-Eya2 binding, biochemical; stronger effect = lower value; control for the full effect not named in the record; activity change, % (concentration not given with the values); 360,000 tested, 0.56% active; in the data active = activity change below about -65%; inconclusive = about -30% to -65%; inactive = above about -30%; note: % is set by controls: 0 for no effect and ±100 for the full control effect
#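 Compounds are tested against tagged Six1 and Eya2 proteins bridged by glutathione donor and nickel acceptor beads; after a one-hour incubation at 37 °C without light, AlphaScreen emission is recorded.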
# TRPML1 blocker: blocks the human TRPML1 channel | TRPML1-inducible cells, Ca2+ dye fluorescence, FDSS; stronger effect = lower value; inhibition of EC80 agonist-evoked calcium signal | AID 624415 | Q9GZU1 | activity change, negative = inhibition, % (no concentration beside the values) | 390,000 tested, 0.02% active; in the data active means activity change below about -50%; inconclusive means about -30% to -50%; inactive means above about -30%;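 note: stimulus is agonist 54-4 at its EC80 concentration; % is set by controls: 0 for no effect and ±100 for the full control effect; compound concentration not given in the record; the text of the record puts the active cut at -80%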
#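 Calcium fluorescence in TRPML1-DL cells induced overnight with Tet: a 110 s read after compound pin addition, then a 110 s antagonist read after challenge with 54-4 at 4 uM final (EC80).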
# * hit, by the source's call; ? = inconclusive; . = no result given; & = joins results of further samples.
# Values run as follows: TRPV1 potentiator	CtBP-E1A inh	TRPML1 ag	D2 PAM	Six1-Eya2 blk	TRPML1 blocker
COc1ccc(CCNC(=O)CCCn2nc(C)n3ccnc3c2=O)cc1OC
 : 5.9	-6.9	-0.8	-6.9	1.7	1.7
COc1ccc(NC(=O)CSc2ncccc2C(=O)OC(C)C)cc1OC
 : 7.3	-10.3	-0.8	-15.1	-2.5	0.4
COCCN(C(=O)COC(=O)Cc1cccc(OC)c1)c1c(N)n(Cc2ccccc2)c(=O)[nH]c1=O
 : 1.3	-4.2	0.0	0.6	12.9	-2.7
COC(=O)c1c(NC(=O)C2COc3ccccc3O2)sc2c1CCN(C(C)=O)C2 (stereo unspecified)
 : 2.5	-2.5	3.4	-10.0	-10.5	10.9
Cc1ccc(S(=O)(=O)N2CCN(C(=O)Cc3ccc(S(=O)(=O)N4CCOCC4)s3)CC2)cc1
 : 7.7	1.1	-0.5	2.2	2.9	1.7
CNC(=S)N(CCc1ccc(S(N)(=O)=O)cc1)C1CC(=O)N(c2ccccc2F)C1=O (stereo unspecified)
 : 7.5	-13.9	1.9	-6.4	11.3	-12.5
COCCN(CCOC)S(=O)(=O)c1ccc(NC(=O)c2cnccn2)cc1
 : -10.8	12.5	-0.3	-13.5	-5.4	-0.7
Cc1ccnc(N2CCC(C(=O)NNC(=O)c3ccccc3)CC2)n1
 : 0.3	0.6	0.1	-5.1	5.3	5.0
O=C1CN(c2nc3nonc3nc2N2CCCCC2)CCN1
 : 1.9	0.1	0.0	-9.6	2.1	4.2
COc1ccc(NC(=O)CSc2nnc3ccc(-c4ccncc4)nn23)cc1OC
 : 6.8	-10.1	.	-1.9	2.2	.
COCCn1c(-c2cccs2)csc1=Nc1cccnc1
 : -9.3	3.6	0.1	0.8	-5.7	-2.6
Cc1cc(NC(=O)CSCC(=O)Nc2ccccc2OC(F)F)no1
 : 20.1	5.5	0.3	-9.4	-1.6	-14.0
CCC(c1nnc(SCC(=O)Nc2cc(C)on2)o1)N(C)C (stereo unspecified)
 : 2.1	-91.2*	-0.4	-1.0	?	-6.6
CC(=O)Nc1ccc(NC(=O)[C@@H](NC(=O)c2ccccc2F)C(C)C)cc1
 : -4.2	0.0	-0.1	1.6	1.9	-9.8
CCC(=O)Nc1nc2ccc3nc(C)sc3c2s1
 : 2.9	-0.9	-0.6	1.7	-5.0	35.5
CCCN1CCC(NC(=O)CC2C(=O)NCCN2Cc2ccccc2C)CC1 (stereo unspecified)
 : -6.1	-10.3	0.4	-5.7	-4.2	-3.5
Cc1ccccc1Nc1c(-c2ccncc2)nc2ccc(Cl)cn12
 : 6.3	3.6	0.1&0.5	-8.7	8.2	-9.7&-6.1
COc1ccccc1NS(=O)(=O)c1cccc(C(=O)NC2CCN(Cc3ccccc3)CC2)c1
 : -5.1	-25.3	0.7	-14.9	-5.7	3.9
Cc1cc(N(C)C)nc(Nc2ccccc2)n1
 : -4.7	.	-0.6	-14.9	1.6	10.7
O=C(NNS(=O)(=O)c1ccccc1)c1cnn(-c2ccccc2)c1-n1cccc1
 : 15.5	-0.1	-0.9	4.5	-0.7	-3.4
CC(C)(C)c1cc(NS(=O)(=O)c2ccc(Br)s2)no1
 : 7.6	-1.2	-0.1	-0.4	0.9	1.0
COc1cc(C(=O)OCC(=O)N2CCCC2)cc(OC)c1OC
 : -24.7	6.1	-0.6	-8.1	-2.4	10.3
Cc1ccc2[nH]c(-c3ccccc3)c(CN3CCCC3)c(=O)c2c1
 : -4.2	10.0	-0.8	1.3	-0.3	18.8
Cc1ccc(F)cc1NC(=O)CN1CCN(Cc2ccccc2)CC1
 : 1.7	.	1.7	-20.8	-4.5	-2.8
CC(CCc1ccco1)NC(=O)CSc1cc(=O)n(C)c2ccccc12 (stereo unspecified)
 : -4.9	-6.5	-1.1	-22.4	-17.9	0.0
COc1ccc(CN(C)C(=O)CNC(=O)c2sc3ccccc3c2Cl)c(OC)c1OC
 : .	-4.1	4.3	-1.2	-0.2	5.1
C[C@H](CO)N1C[C@H](C)[C@H](CN(C)C(=O)c2ccccc2)OCc2ccccc2-c2c(n(C)c3ccccc23)C1=O
 : .	0.9	3.4	-3.5	6.5	1.1
C[C@@H](NC(=O)c1ncn(Cc2ccccc2)c1C(=O)N[C@H](C)c1ccccc1)c1ccccc1
 : 28.2	2.0	2.2	-21.7	-1.0	3.0
O=C(/C=C/c1cccc([N+](=O)[O-])c1)Nc1cc(C(=O)O)cc(C(=O)O)c1
 : -4.5	-2.3	0.3	-23.7	-3.3	-9.4
CC(=O)NC1=NN(C(C)=O)C(c2ccccn2)S1 (stereo unspecified)
 : 3.8	0.0	0.0	8.0	-4.1	-22.2
O=S(=O)(CCCc1ccccc1)c1ncn[nH]1
 : -5.1	11.8	0.7	-29.5	-11.4	-10.0
CC(=O)Nc1cccc(NC(=O)COc2ccccc2C)c1
 : ?	11.5	-0.5	-0.8	3.4	-5.2
Cc1ccccc1C(=O)N1CCC(C(=O)Nc2ccc(S(=O)(=O)N3CCCCC3)cc2)CC1
 : -2.3	-2.9	1.8	-5.2	1.3	-3.7
CC(Sc1ccccc1)C(=O)NCC1COc2ccccc2O1 (stereo unspecified)
 : -7.9	9.6	-0.2	-7.5	3.1	15.5
CCCS(=O)(=O)NC(=O)C1(C)CCN(C(=O)c2ccc(C#N)cc2)C1 (stereo unspecified)
 : .	-14.9	-0.1	-9.0	7.5	.
CSc1nc2ccccc2cc1/C=C(\C#N)c1cccc(Cl)c1
 : 5.1	8.9	3.0	-9.6	2.6	9.1
Cc1ccc(S(=O)(=O)Cc2csc(N)n2)cc1
 : -4.2	0.7	-0.7	-9.5	2.6	-3.1
COc1ccc(-c2c(C)nn3c(N)c(C#N)cnc23)cc1OC
 : -2.4	-3.5	0.5	0.9	-2.5	-2.6
CC(Sc1nnc(-c2cccs2)n1Cc1ccccc1)C(=O)NCc1ccc2c(c1)OCO2 (stereo unspecified)
 : 4.4	-1.1	1.0	-13.9	-3.5	1.7
CC1(C2CC2)NC(=O)N(CC(=O)Nc2ccc(F)cc2F)C1=O (stereo unspecified)
 : 5.0	2.6	0.2	-1.7	4.3	-8.8

# Grouped by structure: the compounds so far containing an NH in an aromatic ring (3)
# Values run as follows: TRPV1 potentiator	CtBP-E1A inh	TRPML1 ag	D2 PAM	Six1-Eya2 blk	TRPML1 blocker
COCCN(C(=O)COC(=O)Cc1cccc(OC)c1)c1c(N)n(Cc2ccccc2)c(=O)[nH]c1=O
 : 1.3	-4.2	0.0	0.6	12.9	-2.7
Cc1ccc2[nH]c(-c3ccccc3)c(CN3CCCC3)c(=O)c2c1
 : -4.2	10.0	-0.8	1.3	-0.3	18.8
O=S(=O)(CCCc1ccccc1)c1ncn[nH]1
 : -5.1	11.8	0.7	-29.5	-11.4	-10.0

# Looked up above:
# CSc1nc2ccccc2cc1/C=C(\C#N)c1cccc(Cl)c1 in CtBP-E1A inh shows 8.9
# Cc1ccc(F)cc1NC(=O)CN1CCN(Cc2ccccc2)CC1 in D2 PAM shows -20.8
# Cc1ccccc1C(=O)N1CCC(C(=O)Nc2ccc(S(=O)(=O)N3CCCCC3)cc2)CC1 in CtBP-E1A inh shows -2.9
# COc1ccc(-c2c(C)nn3c(N)c(C#N)cnc23)cc1OC in TRPML1 ag shows 0.5

# Returning to the listing, starting 2 compounds before the break.
# Values run as follows: TRPV1 potentiator	CtBP-E1A inh	TRPML1 ag	D2 PAM	Six1-Eya2 blk	TRPML1 blocker
CC(Sc1nnc(-c2cccs2)n1Cc1ccccc1)C(=O)NCc1ccc2c(c1)OCO2 (stereo unspecified)
 : 4.4	-1.1	1.0	-13.9	-3.5	1.7
CC1(C2CC2)NC(=O)N(CC(=O)Nc2ccc(F)cc2F)C1=O (stereo unspecified)
 : 5.0	2.6	0.2	-1.7	4.3	-8.8
O=C(CCCC(=O)NNC(=O)Nc1ccccc1)NNC(=O)Nc1ccccc1
 : 3.4	.	-0.4	-2.4	0.0	-2.2
CCOC(=O)c1sc(NC(=S)NC(=O)C2CCCC2)cc1C
 : -0.1	1.0	0.1	-14.9	0.6	0.7
Cc1nn(-c2ccccc2)c2sc(C(=O)NC3CC3)cc12
 : 15.3	-17.2	0.7	-1.5	-9.6	2.1
O=C(NNc1ncnc2c1cnn2-c1ccc(F)cc1)c1ccco1
 : -6.1	-4.3	-0.3	-0.2	-2.7	6.0
O=C(O)c1cccc(Nc2cc(Cl)c3nonc3c2[N+](=O)[O-])c1
 : -7.3	.	-0.1	-12.0	?	26.1
CC1(C)CC(c2nc(-c3ccc([N+](=O)[O-])cc3)cs2)CCO1 (stereo unspecified)
 : -3.7	-2.3	-0.3	1.3	-10.7	77.2
C=CCn1c(COc2ccc(Cl)cc2)nnc1SCc1ccc(C#N)cc1
 : -10.8	9.5	0.9	5.6	-1.7	-0.5
O=c1[nH]c2ccccc2cc1CN(CC1CCCO1)S(=O)(=O)c1ccccc1 (stereo unspecified)
 : -13.9	2.4	0.4	-0.5	2.1	10.5
O=C(Nc1cccc(F)c1)N1CCCC(CNS(=O)(=O)Cc2ccccc2)C1 (stereo unspecified)
 : -11.6	7.0	-0.8	-5.6	9.0	-1.0
CN(C)c1ccc(C(CNS(=O)(=O)c2ccc([N+](=O)[O-])cc2)N2CCCC2)cc1 (stereo unspecified)
 : 23.3	-20.1	0.4	-7.6	-24.8	4.2
Cc1cccc(NC(=O)Nc2ccc(Cl)cc2)n1
 : 7.5	13.3	0.4	-49.1	2.5	-23.4
Cc1nc(N2CCN(Cc3ccc4c(c3)OCO4)CC2)c2cc(-c3ccccc3)sc2n1
 : -0.7	-7.5	1.0	-9.3	-27.9	-3.9
C#CCOCCOCCOCCNc1nc(N2CCN(C(=O)C(Cc3ccc(O)cc3)n3cc(C(N)C(C)CC)nn3)CC2)nc(N2CCN(C(=O)C(Cc3ccc(O)cc3)n3cc(C(N)C(C)CC)nn3)CC2)n1 (stereo unspecified)
 : 11.8	-22.1	-0.3	-18.7	-23.7	-4.5
Cc1ccccc1-c1nc(CS(=O)CC(=O)NC2CC2)c(C)o1 (stereo unspecified)
 : -25.4	.	0.7	-4.4	1.2	9.5
O=C(c1ccc(Cn2c(=S)[nH]c3ccc(N4CCOCC4)cc3c2=O)cc1)N1CCN(c2ccc(F)cc2)CC1
 : 8.7	-20.9	0.5	-9.6	-24.5	19.6
CC(C)(C)NC(=O)CSc1nc(Cc2ccccc2)nc2ccccc12
 : -1.9	-2.8	2.4	0.7	2.5	61.6
O=C(CSc1nnc2sc3ccccc3n12)NCc1ccc2c(c1)OCO2
 : -1.3	-18.6	-0.9	-8.4	-29.4	-15.5
CCCCCCCCN1C(=O)[C@H](CC(=O)NCc2cccs2)C[C@@]2(C(=O)OC)CCCCC=C12
 : .	0.0	-0.2	.	0.3	.

# Gathered by group: those above containing a COOH group.
# Values run as follows: TRPV1 potentiator	CtBP-E1A inh	TRPML1 ag	D2 PAM	Six1-Eya2 blk	TRPML1 blocker
O=C(/C=C/c1cccc([N+](=O)[O-])c1)Nc1cc(C(=O)O)cc(C(=O)O)c1
 : -4.5	-2.3	0.3	-23.7	-3.3	-9.4
O=C(O)c1cccc(Nc2cc(Cl)c3nonc3c2[N+](=O)[O-])c1
 : -7.3	.	-0.1	-12.0	?	26.1

# Screening data deposited in PubChem BioAssay by National Center for Advancing Translational Sciences (NCATS).
